A1 apoptosis 2 – A1 inhibitors via caspase activation, primary screen, cell-based, luminescence, HTS, two replicates; caspase activation, % (concentration not given with the values); 24,000 tested, under 10 active; MEF A1-2A-BIM cells, caspase-Glo luminescence, 3 h; percent of clofoctol response, DMSO zero; in the data active means caspase activation above about 5.9%;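 further: wells of about 30 µL received 50 nL stock; the first replicate is given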
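Evaluation: Caspase-3/7 activity from luminescence increase | Assay system: A1-2A-BIM mouse embryonic fibroblasts | Quantity: 2500 MEF cells/well | Medium: RPMI-1640 plus 10% FBS | Detection: Caspase-Glo 3/7 luminescence, 1 h at room temperature | Dosing: 50 nL compound per well, pinned | Timing: Cells settled overnight, compound exposure 3 h at 37 °C, 5% CO2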
Numbers without * were called inactive. Not all compounds are listed (hit frequency here may not be typical).

SMILES	A1 apoptosis 2
C[C@H](CO)N1C[C@H](C)[C@H](CN(C)C(=O)Nc2ccc(C(F)(F)F)cc2)Oc2c(NC(=O)Nc3ccccc3)cccc2C1=O	-0.2
C[C@H]1CCCCO[C@H](CN(C)Cc2ccc(C(=O)O)cc2)[C@@H](C)CN([C@@H](C)CO)C(=O)c2cc(NC(=O)c3ccccc3)ccc2O1	-0.4
CC(C)NC(=O)Nc1ccc2c(c1)C(=O)N([C@@H](C)CO)C[C@H](C)[C@@H](CN(C)C(=O)C1CCCCC1)OCCCC[C@@H](C)O2	-0.3
Cc1noc(C)c1NC(=O)Nc1cccc2c1O[C@@H](CN(C)S(=O)(=O)c1cn(C)cn1)[C@H](C)CN([C@H](C)CO)C2=O	-0.1
C[C@H](CO)N1C[C@H](C)[C@@H](CN(C)Cc2ccc(Cl)c(Cl)c2)Oc2c(NC(=O)C3CCCCC3)cccc2C1=O	-0.8
Cc1noc(C)c1NC(=O)Nc1ccc2c(c1)CC(=O)N([C@@H](C)CO)C[C@H](C)[C@@H](CN(C)C)O2	0.4
C[C@@H]1CN([C@@H](C)CO)C(=O)CCCn2nncc2CO[C@H]1CN(C)C(=O)Nc1ccc(F)cc1	1.0
C[C@@H]1CN([C@H](C)CO)C(=O)Cc2cc(NC(=O)C3CCCCC3)ccc2O[C@H]1CN(C)C(=O)NC1CCCCC1	-0.3
C[C@H](CO)N1C[C@H](C)[C@@H](CN(C)C(=O)Nc2ccc(-c3cccs3)cc2)OCc2cn(nn2)CCCC1=O	-0.1
CC(C)NC(=O)N(C)C[C@H]1Oc2ccc(NC(=O)CCN3CCOCC3)cc2CC(=O)N([C@@H](C)CO)C[C@H]1C	-0.3
CNC[C@@H]1Oc2ccc(NC(=O)Nc3ccc(OC)cc3)cc2C(=O)N([C@@H](C)CO)C[C@@H]1C	-0.7
C[C@@H]1CN([C@H](C)CO)C(=O)c2cc(NC(=O)c3ccccc3)ccc2O[C@@H](C)CCCCO[C@@H]1CN(C)Cc1ccc(Cl)c(Cl)c1	-0.9
C[C@H](CO)N1C[C@H](C)[C@H](CN(C)Cc2ccc(C(=O)O)cc2)Oc2ccc(NC(=O)c3ccncc3)cc2CC1=O	-0.7
COC(=O)N(C)C[C@@H]1OCc2cnnn2CCCC(=O)N([C@@H](C)CO)C[C@H]1C	0.6
Cc1noc(C)c1NC(=O)Nc1ccc2c(c1)C(=O)N([C@H](C)CO)C[C@@H](C)[C@H](CN(C)Cc1ccc(C(=O)Nc3ccccc3N)cc1)O2	1.1
C[C@H]1CCCCO[C@H](CN(C)S(=O)(=O)c2ccccc2)[C@@H](C)CN([C@@H](C)CO)C(=O)c2cc(NS(C)(=O)=O)ccc2O1	0.4
C[C@@H]1CN([C@H](C)CO)C(=O)Cc2cc(NS(=O)(=O)c3ccc(F)cc3)ccc2O[C@@H]1CN(C)Cc1ccc2c(c1)OCO2	-1.7
Cc1noc(C)c1S(=O)(=O)N(C)C[C@@H]1Oc2ccc(N(C)C)cc2CC(=O)N([C@H](C)CO)C[C@H]1C	-0.1
COc1ccc([C@H]2C=C(C(=O)N3CCN(Cc4ccc5c(c4)OCO5)CC3)O[C@@H](OCc3ccc(CO)cc3)C2)cc1	0.1
CNC[C@H]1OCCCC[C@H](C)Oc2ccc(NC(=O)c3ccncc3)cc2C(=O)N([C@@H](C)CO)C[C@@H]1C	0.2
Cc1noc(C)c1S(=O)(=O)Nc1cccc2c1O[C@@H](CN(C)C(=O)Nc1ccccc1)[C@@H](C)CN([C@@H](C)CO)C2=O	0.2
Cc1noc(C)c1S(=O)(=O)Nc1cccc2c1O[C@@H](CN(C)Cc1ccc(Cl)c(Cl)c1)[C@@H](C)CN([C@@H](C)CO)C2=O	-0.1
C[C@@H]1CN([C@H](C)CO)C(=O)c2cc(NC(=O)CCC(F)(F)F)ccc2O[C@@H](C)CCCCO[C@@H]1CN(C)Cc1ccc2c(c1)OCO2	-0.8
C[C@@H]1CN([C@H](C)CO)C(=O)c2cccc(NC(=O)CCCCCC(=O)Nc3ccccc3N)c2O[C@@H]1CN(C)S(=O)(=O)c1cn(C)cn1	0.0
C[C@H]1CN([C@@H](C)CO)C(=O)Cc2cc(NC(=O)CCC(F)(F)F)ccc2O[C@H]1CN(C)Cc1ccccc1	0.1

Next part, overlapping the part above by seven compounds.
SMILES	A1 apoptosis 2
COc1ccc([C@H]2C=C(C(=O)N3CCN(Cc4ccc5c(c4)OCO5)CC3)O[C@@H](OCc3ccc(CO)cc3)C2)cc1	0.1
CNC[C@H]1OCCCC[C@H](C)Oc2ccc(NC(=O)c3ccncc3)cc2C(=O)N([C@@H](C)CO)C[C@@H]1C	0.2
Cc1noc(C)c1S(=O)(=O)Nc1cccc2c1O[C@@H](CN(C)C(=O)Nc1ccccc1)[C@@H](C)CN([C@@H](C)CO)C2=O	0.2
Cc1noc(C)c1S(=O)(=O)Nc1cccc2c1O[C@@H](CN(C)Cc1ccc(Cl)c(Cl)c1)[C@@H](C)CN([C@@H](C)CO)C2=O	-0.1
C[C@@H]1CN([C@H](C)CO)C(=O)c2cc(NC(=O)CCC(F)(F)F)ccc2O[C@@H](C)CCCCO[C@@H]1CN(C)Cc1ccc2c(c1)OCO2	-0.8
C[C@@H]1CN([C@H](C)CO)C(=O)c2cccc(NC(=O)CCCCCC(=O)Nc3ccccc3N)c2O[C@@H]1CN(C)S(=O)(=O)c1cn(C)cn1	0.0
C[C@H]1CN([C@@H](C)CO)C(=O)Cc2cc(NC(=O)CCC(F)(F)F)ccc2O[C@H]1CN(C)Cc1ccccc1	0.1
CC(C)NC(=O)Nc1ccc2c(c1)C(=O)N([C@@H](C)CO)C[C@H](C)[C@@H](CN(C)C(=O)CCCN(C)C)OCCCC[C@@H](C)O2	0.1
C[C@@H]1CN([C@@H](C)CO)C(=O)Cc2cc(NC(=O)Cc3ccccc3)ccc2O[C@@H]1CN(C)C(=O)Nc1ccc(C(F)(F)F)cc1	0.1
Cc1noc(C)c1NC(=O)Nc1ccc2c(c1)CC(=O)N([C@H](C)CO)C[C@@H](C)[C@@H](CN(C)Cc1ccc(Oc3ccccc3)cc1)O2	-0.5
COc1ccc(S(=O)(=O)Nc2ccc3c(c2)C(=O)N([C@H](C)CO)C[C@H](C)[C@@H](CN(C)Cc2ccc(C(=O)O)cc2)O3)cc1	-0.5
COc1ccc([Si](C)(C)[C@@H]2[C@@H](CCO)O[C@]3(C(=O)N(Cc4ccc(NC(C)=O)cc4)c4ccccc43)[C@H]2C)cc1	-1.5
C[C@@H]1CN([C@H](C)CO)C(=O)Cc2cc(NS(C)(=O)=O)ccc2O[C@H]1CN(C)C(=O)Nc1cccc2ccccc12	0.9
C[C@H]1CCCCO[C@@H](CN(C)CC2CCCCC2)[C@@H](C)CN([C@@H](C)CO)C(=O)c2cc(NC(=O)c3ccccc3)ccc2O1	0.5
Clc1nc(NC2CCN(Cc3ccccc3)CC2)c2cc(Br)ccc2n1	0.3
C[C@@H]1CCCCO[C@@H](CN(C)C(=O)Nc2cccc3ccccc23)[C@H](C)CN([C@H](C)CO)C(=O)c2cc(NS(=O)(=O)c3ccc(Cl)cc3)ccc2O1	-0.4
C[C@@H]1CCCCO[C@@H](CN(C)C(=O)Cc2ccccc2)[C@@H](C)CN([C@@H](C)CO)C(=O)c2cc(NC(=O)Cc3ccccc3)ccc2O1	0.2
COc1ccc(CN(C)C[C@@H]2OCCCC[C@@H](C)Oc3ccc(NS(=O)(=O)c4cccs4)cc3C(=O)N([C@H](C)CO)C[C@H]2C)cc1	1.0
COc1ccc(CN(C)C[C@@H]2Oc3ccc(NC(=O)Nc4cccc5ccccc45)cc3CC(=O)N([C@H](C)CO)C[C@@H]2C)cc1	1.2
COc1ccc(NC(=O)N(C)C[C@H]2Oc3c(NC(=O)C4CC4)cccc3C(=O)N([C@H](C)CO)C[C@@H]2C)cc1	-1.2
CNC[C@@H]1Oc2c(NS(=O)(=O)c3ccc(Cl)cc3)cccc2C(=O)N([C@@H](C)CO)C[C@@H]1C	1.7
C[C@H]1CN([C@@H](C)CO)C(=O)c2cccc(NC(=O)C3CCOCC3)c2O[C@H]1CN(C)S(=O)(=O)c1ccc(Cl)cc1	-1.0
C[C@@H]1CCCCO[C@@H](CN(C)S(C)(=O)=O)[C@@H](C)CN([C@H](C)CO)C(=O)c2cc(NC(=O)NC3CCCCC3)ccc2O1	-0.3
C[C@@H]1CN([C@@H](C)CO)C(=O)CCCn2nncc2CO[C@@H]1CN(C)C(=O)Nc1ccc(C(C)(C)C)cc1	-0.1
C[C@@H]1CN([C@@H](C)CO)C(=O)c2cc(NS(=O)(=O)c3ccc(F)cc3)ccc2O[C@H]1CN(C)S(=O)(=O)c1ccc(Cl)cc1	0.4
C[C@H](CO)N1C[C@H](C)[C@H](CN(C)S(=O)(=O)c2cccs2)Oc2ccc(NC(=O)CCN3CCOCC3)cc2CC1=O	1.6
COc1ccc(S(=O)(=O)N(C)C[C@@H]2OCCCC[C@H](C)Oc3ccc(NC(=O)c4ccncc4)cc3C(=O)N([C@H](C)CO)C[C@H]2C)cc1	-0.4
C[C@H]1CN([C@@H](C)CO)C(=O)c2cc(NC(=O)CCCCCC(=O)Nc3ccccc3N)ccc2O[C@@H]1CN(C)C(=O)Nc1ccc(C(F)(F)F)cc1	-1.2
COc1ccc(NC(=O)N(C)C[C@H]2Oc3c(NC(=O)c4nc5ccccc5s4)cccc3C(=O)N([C@H](C)CO)C[C@@H]2C)cc1	-1.0
C[C@H](CO)N1C[C@H](C)[C@@H](CN(C)Cc2ccc(C(F)(F)F)cc2)Oc2ccc(NC(=O)c3ccncc3)cc2C1=O	-0.3
C[C@H](CO)N1C[C@H](C)[C@H](CN(C)S(=O)(=O)c2ccc(F)cc2)Oc2ccc(NS(=O)(=O)c3ccccc3)cc2CC1=O	-1.1
COc1cccc(S(=O)(=O)N(C)C[C@@H]2OCc3cnnn3CCCC(=O)N([C@H](C)CO)C[C@@H]2C)c1	0.7

Brought forward from above: two entries, followed by the next part.
SMILES	A1 apoptosis 2
C[C@H](CO)N1C[C@H](C)[C@H](CN(C)S(=O)(=O)c2ccc(F)cc2)Oc2ccc(NS(=O)(=O)c3ccccc3)cc2CC1=O	-1.1
COc1cccc(S(=O)(=O)N(C)C[C@@H]2OCc3cnnn3CCCC(=O)N([C@H](C)CO)C[C@@H]2C)c1	0.7
CC(C)NC(=O)N(C)C[C@H]1OCCCC[C@@H](C)Oc2ccc(NS(C)(=O)=O)cc2C(=O)N([C@H](C)CO)C[C@@H]1C	-0.9
Cc1cc(C(=O)Nc2cccc3c2O[C@H](CN(C)S(=O)(=O)c2cccs2)[C@H](C)CN([C@@H](C)CO)C3=O)n(C)n1	0.6
C[C@@H]1CN([C@@H](C)CO)C(=O)CCCn2cc(nn2)CO[C@H]1CN(C)C	-0.3
COc1ccc(S(=O)(=O)Nc2ccc3c(c2)C(=O)N([C@@H](C)CO)C[C@H](C)[C@H](CN(C)C(=O)CCC(F)(F)F)OCCCC[C@H](C)O3)cc1	0.3
C[C@H]1CCCCO[C@H](CN(C)Cc2ccc(Cl)c(Cl)c2)[C@@H](C)CN([C@@H](C)CO)C(=O)c2cc(NC(=O)Nc3cccc4ccccc34)ccc2O1	0.2
CNC[C@H]1Oc2c(NC(=O)c3ccncc3)cccc2C(=O)N([C@@H](C)CO)C[C@H]1C	1.0
C[C@@H]1CN([C@@H](C)CO)C(=O)c2cc(NC(=O)Cc3ccccc3)ccc2O[C@@H]1CN(C)Cc1ccc(Oc2ccccc2)cc1	-0.1
Cc1ccc(S(=O)(=O)N(C)C[C@H]2Oc3ccc(NS(=O)(=O)c4ccc(F)cc4)cc3CC(=O)N([C@H](C)CO)C[C@H]2C)cc1	0.7
C[C@H]1CN([C@@H](C)CO)C(=O)c2cccc(NC(=O)NC3CCCCC3)c2O[C@H]1CN(C)S(=O)(=O)c1ccc(F)cc1	-0.3
C[C@H]1CN([C@@H](C)CO)C(=O)c2cccc(NS(=O)(=O)c3cn(C)cn3)c2O[C@H]1CN(C)S(=O)(=O)c1ccccc1	-1.0
COc1ccc(CN(C)C[C@H]2OCCCC[C@@H](C)Oc3ccc(NC(=O)NC4CCCCC4)cc3C(=O)N([C@H](C)CO)C[C@H]2C)cc1	0.4
Cc1ccc(S(=O)(=O)N(C)C[C@@H]2Oc3c(NS(=O)(=O)c4c(C)noc4C)cccc3C(=O)N([C@H](C)CO)C[C@@H]2C)cc1	-0.4
C[C@H]1CN([C@@H](C)CO)C(=O)Cc2cc(NC(=O)Nc3ccc(C(F)(F)F)cc3)ccc2O[C@H]1CN(C)CC1CC1	-1.5
C[C@@H]1CN([C@@H](C)CO)C(=O)Cc2cc(NC(=O)Nc3ccc(F)cc3)ccc2O[C@H]1CN(C)C(=O)NC1CCCCC1	0.1
Cc1noc(C)c1S(=O)(=O)N(C)C[C@H]1OCCCC[C@H](C)Oc2ccc(NC(=O)NC(C)C)cc2C(=O)N([C@H](C)CO)C[C@@H]1C	-0.1
Cc1noc(C)c1S(=O)(=O)N(C)C[C@@H]1OCCCC[C@@H](C)Oc2ccc(NS(C)(=O)=O)cc2C(=O)N([C@H](C)CO)C[C@H]1C	1.0
C[C@@H]1CCCCO[C@H](CN(C)C(=O)CCC(F)(F)F)[C@H](C)CN([C@H](C)CO)C(=O)c2cc(NS(C)(=O)=O)ccc2O1	-0.3
C[C@H](CO)N1C[C@H](C)[C@@H](CN(C)Cc2ccncc2)Oc2c(NS(=O)(=O)c3ccc(Cl)cc3)cccc2C1=O	-1.2
C[C@@H]1CN([C@H](C)CO)C(=O)c2cccc(NC(=O)c3ccc(-c4nccs4)cc3)c2O[C@@H]1CN(C)Cc1ccncc1	-1.2
C[C@@H]1CN([C@H](C)CO)C(=O)c2cccc(NC(=O)C3CC3)c2O[C@H]1CN(C)C	-0.4
C[C@@H]1CN([C@H](C)CO)C(=O)c2cccc(NC(=O)C3CC3)c2O[C@H]1CN(C)C(=O)NC1CCCCC1	0.1
